# PKD1 kinase inh: inhibitors of human PKD1 kinase, biochemical, fluorescence polarization; Serine/threonine-protein kinase D1 (Homo sapiens), Q15139; PKD1 kinase fluorescence polarization assay; inhibition, %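 (about 10 µM by stock and volumes)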; hit rate 0.056% among 200,000; AID 797, 2007;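 active means inhibition of 50% or more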;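 further: controls were vehicle for no effect and a reference inhibitor for full effect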
# GALR2 ag: GALR2 receptor agonists, primary screen, cell-based; Galanin receptor type 2 (Homo sapiens), O43603; GALR2-expressing cells, agonist activation read-out; activation, %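 (tested at 5 µM)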; hit rate 0.48% among 140,000; AID 803, 2007;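 active means above mean plus 3 SD of all compounds, about 5% in these data, not always enough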;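 further: 0% = vehicle buffer wells and 100% = reference agonist at full effect; tested in CHO reporter cells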
# Target sequence (O43603 whole entry, looked up): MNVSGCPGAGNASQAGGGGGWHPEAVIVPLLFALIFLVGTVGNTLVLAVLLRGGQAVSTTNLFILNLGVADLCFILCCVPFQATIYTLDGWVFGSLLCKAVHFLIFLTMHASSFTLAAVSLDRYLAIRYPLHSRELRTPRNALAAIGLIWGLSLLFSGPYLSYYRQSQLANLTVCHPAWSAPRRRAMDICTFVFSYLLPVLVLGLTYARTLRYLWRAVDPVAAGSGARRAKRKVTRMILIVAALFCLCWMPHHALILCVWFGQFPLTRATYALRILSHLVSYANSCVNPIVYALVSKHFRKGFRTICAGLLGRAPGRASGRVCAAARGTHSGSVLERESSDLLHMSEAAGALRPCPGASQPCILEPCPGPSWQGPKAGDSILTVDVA
# RGS16-Gao HTS: modulators of RGS16 binding to Galphao, primary screen, biochemical, human proteins, multiplexed bead flow cytometry; Regulator of G-protein signaling 16 (Homo sapiens) + Guanine nucleotide-binding protein …; bead-based flow cytometry RGS16-Galphao binding, fluorescence; actives lie on both sides; binding response (% of control), % at 10 µM; hit rate 0.38% among 220,000;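 active means below 25% or above 175%, edge rows of some plates excepted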;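 further: Galphao activated by GDP with aluminum fluoride before binding; 100% = wells without compound and 0% = beads without RGS; some results beyond the cut were filed as inactive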
# INS promoter inh: inhibitors of insulin promoter-driven GFP, primary screen, imaging, TRM-6 cells (human fetal islet line), eGFP reporter, cell count; hit rate 0.9% among 130,000; reporter expression induced with tamoxifen; AID 1273, 2008; inhibition, % at 2 µM;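 active means inhibition above the mean plus 3 SD, with well images judged a real hit on visual review, cut at about 60% in these data, passing the limit was not always enough; inconclusive means inhibition over the cutoff but images rejected on review; inactive means inhibition not above the cutoff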
# HSV replic up: enhancers of HSV replication in host cells, fold increase, host cell viability; HSV replication augmentation in cells; maximum fold increase; hit rate 0.005% among 220,000; AID 1956, 2009;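 active means peak rise of 1.5-fold or more in the series; inconclusive means self-fluorescent or not available for retest; tested in PC3 cells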;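 further: first round at 10 µM; read as green reporter fluorescence; hits show the peak of a series up to 25 µM; 1 = signal of infected wells without compound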
# INS promoter inh cell count: second read-out of INS promoter inh, no call of its own (marks repeat the call); normalized cell count, %; measured here: cell count, toxicity; reference of the scale not given here;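 cells exposed to compound for 48 h; stained nuclei by imaging scaled within each plate; lower means fewer cells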
# HSV replic up primary fold: also measured in HSV replic up; calls as there; fold increase; compound at 10 µM; measured here: primary screen fold increase 10 uM; tested in PC3 cells;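 GFP signal in the first replicate; 1 = infected wells without compound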
# * marks the source's active call; other numbers are inactive results; i = inactive; ? = inconclusive; nt = not tested or not shown.
SMILES,PKD1 kinase inh,GALR2 ag,RGS16-Gao HTS,INS promoter inh,INS promoter inh cell count,HSV replic up,HSV replic up primary fold
Cc1cccc(CSCCNC(=O)c2ccc(N(C)S(=O)(=O)c3ccccc3)cc2)c1,5.4,-1.4,97.3,-37.5,84.8,i,1.03
CCOC(=O)C1CCN(C(=O)CCc2c(C)nc3c(-c4ccc(F)cc4)c(C)nn3c2C)CC1,-3.8,0.1,93.0,nt,nt,i,0.82
Cc1ccc([N+](=O)[O-])cc1NC(=S)NC(=O)C(C)(C)C,-16.4,-0.8,101.2,nt,nt,i,0.7
Cc1cccc(N2CCN(Cc3nc(C4CC4)no3)CC2)n1,nt,nt,101.5,nt,nt,i,0.96
Cc1cc(C)nc(SCCn2c(N3CCCCC3)nc3c2c(=O)n(C)c(=O)n3C)n1,-3.1,1.0,104.4,-42.9,71.0,i,0.84
CCOC(=O)N1CCC(NC(=O)c2ccc(CS(=O)(=O)c3c(Cl)cccc3Cl)o2)CC1,0.6,-1.3,103.7,-28.6,69.2,i,1.31
CCc1ccc2oc(=O)cc(CN(C)Cc3ccccc3)c2c1,-19.1,-0.7,86.3,8.3,90.1,i,0.97
O=C(NCCc1cn2ccccc2n1)C1CCCCC1,1.6,-3.5,94.6,nt,nt,i,0.92
Cc1ccc(C(=O)Cn2nc(C)c([N+](=O)[O-])c2C)c(C)c1,-0.2,nt,96.9,nt,nt,i,0.89
O=C(Nc1ccc(Cl)cc1)OCc1cc(-c2ccccc2Cl)on1,2.0,-2.4,97.0,nt,nt,nt,nt
COc1ccc(S(=O)(=O)NCCSCc2cccc(C)c2)cc1Br,1.6,-1.7,100.4,-33.3,97.4,i,0.973
COc1cc(OC)c(C(=O)COc2ncnc3ccccc23)c(OC)c1,3.6,-2.1,101.0,7.1,96.7,i,1
Cc1cc(OCCCCCNCCO)cc(C)c1Cl,-2.1,-0.3,100.7,-50.9,105.1,i,0.93
Cc1ccc(OCC(=O)NCCO)c(Br)c1,3.6,nt,110.1,nt,nt,i,1.09
CCOC(=O)N1CCC(NC(=O)C2CCN(S(=O)(=O)N3CCCC3)CC2)CC1,9.1,-1.4,100.1,23.1,75.1,i,0.86
COc1ccc(C(=O)N2CCN(C(C)=O)CC2)cc1S(=O)(=O)NCc1ccc(Cl)cc1,-9.5,-0.2,99.3,nt,nt,i,0.97
CC12CN(C(=S)Nc3ccccc3)CC(C)(CN(C(=S)Nc3ccccc3)C1)C2=O,6.1,nt,109.7,nt,nt,i,1.01
CC(C)c1ccc(NC(=O)C2CCN(S(C)(=O)=O)CC2)cc1,-8.7,-0.8,99.1,nt,nt,i,0.907
Cc1cc(C)n(/N=C/c2ccco2)c(=O)c1C#N,-5.6,-1.9,99.1,29.4,118.8,i,0.99
CCOC(=O)CSc1nnc(Cn2nnc3ccccc32)n1-c1ccc(F)cc1,nt,nt,98.5,nt,nt,i,0.97
COc1ccc(NC(=O)c2cccs2)c([N+](=O)[O-])c1,4.5,-1.9,49.9,nt,nt,i,0.997
O=C(Nc1ccc(Cl)cn1)c1ccc([N+](=O)[O-])o1,-7.5,nt,99.9,nt,nt,i,0.62
Cc1ccc(S(=O)(=O)N(C)C)cc1NC(=O)Nc1ccccc1,nt,nt,110.9,nt,nt,i,0.95
Cn1c(=O)oc2cc(S(=O)(=O)N3CCC4(CC3)OCCO4)ccc21,-7.1,-3.5,102.7,nt,nt,i,1.22
COC(=O)C(=C/C(C)=C/c1cccnc1)C(=O)OC,-9.7,nt,97.5,nt,nt,i,0.64

# Following part:
SMILES,PKD1 kinase inh,GALR2 ag,RGS16-Gao HTS,INS promoter inh,INS promoter inh cell count,HSV replic up,HSV replic up primary fold
COc1ccc(-c2csc(Cc3nnc4n3CCCCC4)n2)cc1,-5.4,-1.5,100.5,9.1,105.2,i,1.03
O=C(CN1C(=O)NC2(CCCC2)C1=O)Nc1ccc(F)c(F)c1F,-4.4,-1.4,103.9,37.8,81.5,i,0.8
Cn1c(SCc2cc(=O)[nH]c3ccccc23)nnc1-c1ccc(Br)cc1,0.2,-1.6,104.4,3.7,151.9,i,1
Cc1noc(C)c1C(=O)NCc1cccs1,0.0,-2.8,nt,41.4,162.3,i,0.91
O=C(CSC1=NCCS1)Nc1nc(-c2ccccc2)cs1,-7.1,-2.0,89.0,-72.7,144.4,nt,nt
CCOc1cc2[nH]c(=S)n(CC3CCCN3CC)c(=O)c2cc1OCC (configuration not stated),-5.0,-1.7,104.0,nt,nt,i,0.91
CCOc1ccc(OCC)c(Nc2cc(C)nc3ncnn23)c1,0.2,-0.2,100.3,nt,nt,i,0.99
CCOC(=O)N1N=C(c2ccc(OC)cc2)CC1(O)C(F)(F)F (configuration not stated),1.8,nt,104.8,nt,nt,i,1.05
Cc1cc(N2CCCC2)ccc1/C=C1\NC(=S)N(C)C1=O,-5.1,nt,87.7,nt,nt,?,nt
Cc1ccc(CSC2=Nc3ccccc3C3=NC(=O)CN23)cc1,2.8,nt,95.8,nt,nt,i,0.87
COc1cc(/C=N/NC(=O)c2cc(-c3ccc4c(c3)OCO4)n[nH]2)ccc1O,-3.6,-2.5,56.8,56.2,123.2,i,0.81
OCC1(Cc2ccc(Cl)cc2)CCN(Cc2ccc3nsnc3c2)CC1,1.4,nt,98.6,42.9,87.2,i,1.02
CCC(C)(C(=O)NC1CCCC1)N(C(=O)c1ccccn1)c1ccccc1 (configuration not stated),-3.0,-3.1,96.5,14.3,101.6,i,0.93
COc1ccc(Cl)cc1NC(=S)NCCO,1.2,nt,97.9,nt,nt,i,1.3
CS(=O)(=O)N1CCN(c2ccccc2NC(=O)c2cccs2)CC1,1.7,-0.7,98.1,-365.0,44.1,i,0.92
Cc1ccc(Sc2cnn(-c3ccccc3)c(=O)c2Cl)cc1,1.7,-2.1,90.3,nt,nt,i,0.91
CCn1c(=Nc2ccc(N3CCOCC3)cc2)ccc2ccccc21,-7.7,3.7,114.3,-32.3,61.0,i,0.98
COc1ccc(-c2cc(N3CCCC3)n3ncnc3n2)cc1,1.6,0.1,98.1,23.7,99.2,i,0.83
CC(C#CCN1CCCCC1)OCCOCc1ccccc1 (configuration not stated),0.9,-2.9,101.4,nt,nt,i,1

# 15 neighbouring entries already listed:
SMILES,PKD1 kinase inh,GALR2 ag,RGS16-Gao HTS,INS promoter inh,INS promoter inh cell count,HSV replic up,HSV replic up primary fold
O=C(CSC1=NCCS1)Nc1nc(-c2ccccc2)cs1,-7.1,-2.0,89.0,-72.7,144.4,nt,nt
CCOc1cc2[nH]c(=S)n(CC3CCCN3CC)c(=O)c2cc1OCC (configuration not stated),-5.0,-1.7,104.0,nt,nt,i,0.91
CCOc1ccc(OCC)c(Nc2cc(C)nc3ncnn23)c1,0.2,-0.2,100.3,nt,nt,i,0.99
CCOC(=O)N1N=C(c2ccc(OC)cc2)CC1(O)C(F)(F)F (configuration not stated),1.8,nt,104.8,nt,nt,i,1.05
Cc1cc(N2CCCC2)ccc1/C=C1\NC(=S)N(C)C1=O,-5.1,nt,87.7,nt,nt,?,nt
Cc1ccc(CSC2=Nc3ccccc3C3=NC(=O)CN23)cc1,2.8,nt,95.8,nt,nt,i,0.87
COc1cc(/C=N/NC(=O)c2cc(-c3ccc4c(c3)OCO4)n[nH]2)ccc1O,-3.6,-2.5,56.8,56.2,123.2,i,0.81
OCC1(Cc2ccc(Cl)cc2)CCN(Cc2ccc3nsnc3c2)CC1,1.4,nt,98.6,42.9,87.2,i,1.02
CCC(C)(C(=O)NC1CCCC1)N(C(=O)c1ccccn1)c1ccccc1 (configuration not stated),-3.0,-3.1,96.5,14.3,101.6,i,0.93
COc1ccc(Cl)cc1NC(=S)NCCO,1.2,nt,97.9,nt,nt,i,1.3
CS(=O)(=O)N1CCN(c2ccccc2NC(=O)c2cccs2)CC1,1.7,-0.7,98.1,-365.0,44.1,i,0.92
Cc1ccc(Sc2cnn(-c3ccccc3)c(=O)c2Cl)cc1,1.7,-2.1,90.3,nt,nt,i,0.91
CCn1c(=Nc2ccc(N3CCOCC3)cc2)ccc2ccccc21,-7.7,3.7,114.3,-32.3,61.0,i,0.98
COc1ccc(-c2cc(N3CCCC3)n3ncnc3n2)cc1,1.6,0.1,98.1,23.7,99.2,i,0.83
CC(C#CCN1CCCCC1)OCCOCc1ccccc1 (configuration not stated),0.9,-2.9,101.4,nt,nt,i,1

# Retrieved by compound from the list above (three):
SMILES,PKD1 kinase inh,GALR2 ag,RGS16-Gao HTS,INS promoter inh,INS promoter inh cell count,HSV replic up,HSV replic up primary fold
CC(C#CCN1CCCCC1)OCCOCc1ccccc1 (configuration not stated),0.9,-2.9,101.4,nt,nt,i,1
Cc1noc(C)c1C(=O)NCc1cccs1,0.0,-2.8,nt,41.4,162.3,i,0.91
COc1cc(/C=N/NC(=O)c2cc(-c3ccc4c(c3)OCO4)n[nH]2)ccc1O,-3.6,-2.5,56.8,56.2,123.2,i,0.81

# Screening data deposited in PubChem BioAssay by several laboratories.
